KCNQ2 block: KCNQ2 potassium channel inhibitors, primary screen, cell-based, CHO-K1, FluxOR thallium flux, B-score (AID 2156); O88943; 20 min; stronger effect = lower value; only compounds with negative scores are shown here; some inactives read as strong as hits; B-score at 10 µM; 1.1% of 310,000 active;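 active = fluorescence ratio B-score at most minus 3 library SDs, with starting brightness B-score within 2 library SDs, cut at about -5.5 in these data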
Target sequence (O88943 whole entry, looked up): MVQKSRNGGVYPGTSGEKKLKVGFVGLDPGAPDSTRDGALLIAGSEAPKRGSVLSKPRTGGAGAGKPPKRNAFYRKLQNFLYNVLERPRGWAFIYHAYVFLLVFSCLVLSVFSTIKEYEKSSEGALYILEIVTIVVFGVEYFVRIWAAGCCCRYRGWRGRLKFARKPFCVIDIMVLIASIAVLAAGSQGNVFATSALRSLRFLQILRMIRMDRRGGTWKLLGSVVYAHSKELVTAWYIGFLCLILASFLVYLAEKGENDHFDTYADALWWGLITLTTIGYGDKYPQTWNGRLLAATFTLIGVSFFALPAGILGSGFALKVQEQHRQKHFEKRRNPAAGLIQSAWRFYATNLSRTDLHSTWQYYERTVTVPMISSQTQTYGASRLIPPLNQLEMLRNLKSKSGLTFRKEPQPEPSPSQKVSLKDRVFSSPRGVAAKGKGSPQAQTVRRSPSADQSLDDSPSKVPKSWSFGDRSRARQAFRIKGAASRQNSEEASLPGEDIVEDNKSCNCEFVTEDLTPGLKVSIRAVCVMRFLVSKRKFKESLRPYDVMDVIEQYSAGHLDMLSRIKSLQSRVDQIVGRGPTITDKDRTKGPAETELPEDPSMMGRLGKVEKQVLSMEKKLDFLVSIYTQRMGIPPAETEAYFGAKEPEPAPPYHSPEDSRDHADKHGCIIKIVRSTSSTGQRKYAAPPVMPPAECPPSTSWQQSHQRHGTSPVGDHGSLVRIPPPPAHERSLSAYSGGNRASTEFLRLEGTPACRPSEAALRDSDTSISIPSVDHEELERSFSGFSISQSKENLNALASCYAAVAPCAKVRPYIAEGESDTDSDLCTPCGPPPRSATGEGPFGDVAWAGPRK
KCNQ2 block baseline: also measured in KCNQ2 block; calls as there; B-score; measured here: initial fluorescence intensity artifact check;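 brightness before thallium and not channel activity; 0 = typical well and far values either way flag optical interference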
Numbers without * were called inactive; i = inactive. These rows are one share of the data, so the mix of outcomes need not match the whole.

SMILES | KCNQ2 block | KCNQ2 block baseline
CC1CCN(S(=O)(=O)N2CCC(C(=O)NCc3cccnc3)CC2)CC1 | i | 0.67
Nc1nc(CN2CCN(c3ccccc3F)CC2)nc(Nc2ccc3c(c2)OCCO3)n1 | i | -0.08
O=C(COc1ccccc1Cl)Nc1ccc(S(=O)(=O)Nc2ccccn2)cc1 | i | 0.4
CCCOc1ccc(N2C(=O)CC(NCCc3ccc(S(N)(=O)=O)cc3)C2=O)cc1 (stereo unspecified) | i | 1.4
COc1ccc(C(=O)CCN2CCCCCC2)cc1 | i | 1.8
CCOC(=O)N1CCN(CC(=O)N2c3ccccc3CCc3ccccc32)CC1 | i | -1.2
COc1ccc(C(=O)N/N=C\c2ccoc2)cc1 | i | 0.23
COc1ccc(CC(=O)Nc2cc(C)on2)cc1 | i | -0.49
COc1cc(NC2c3ccccc3C(=O)N2c2ccc(C)cn2)cc(OC)c1OC (stereo unspecified) | i | 1.2
CCOc1ccc(S(=O)(=O)N2CCN(Cc3ccccc3)CC2)c2cccnc12 | i | -0.86
O=C(COc1ccc2ccccc2c1)NC1CC1 | i | 0.22
CCOc1ccc2cc(/C=C/C(=O)c3ccco3)c(Cl)nc2c1 | i | -0.42

Among those listed so far, five contain a carbonyl joined to an NH by a bond outside any ring:
SMILES | KCNQ2 block | KCNQ2 block baseline
CC1CCN(S(=O)(=O)N2CCC(C(=O)NCc3cccnc3)CC2)CC1 | i | 0.67
O=C(COc1ccccc1Cl)Nc1ccc(S(=O)(=O)Nc2ccccn2)cc1 | i | 0.4
COc1ccc(C(=O)N/N=C\c2ccoc2)cc1 | i | 0.23
COc1ccc(CC(=O)Nc2cc(C)on2)cc1 | i | -0.49
O=C(COc1ccc2ccccc2c1)NC1CC1 | i | 0.22

(next part)
SMILES | KCNQ2 block | KCNQ2 block baseline
CCOC(=O)N1CCC(NC(=O)c2cc(C)c3c(C)nn(-c4ccccc4)c3n2)CC1 | i | -0.06
COc1ccc(OCCN2CCN(C(=O)c3ccc(OC)cc3)CC2)cc1 | i | -0.07
O=C(NN=C1CCCCC1)c1cc(-c2ccccc2)n[nH]1 | i | 0.69
CCCCOc1ccc(N(CC(=O)NC(C)C)C(=O)CCC(=O)Nc2ccccn2)cc1 | i | 1.4
O=C(c1cc(F)c(F)cc1Cl)N1CCN(c2ccc([N+](=O)[O-])c3ncccc23)CC1 | i | 0.64
CC(C)NCC(O)COc1c(F)cc(Br)cc1F (stereo unspecified) | i | -0.11
CN(C)C(CNC(=O)C1CCN(S(=O)(=O)c2cccc(C(F)(F)F)c2)CC1)c1ccccc1 (stereo unspecified) | i | -1.1
CN(C)S(=O)(=O)c1ccc(NC(=O)CCNC(=O)c2ccco2)cc1 | i | -1.4
Nc1nc(-c2ccc(Cl)cc2)nn1C(=O)c1cccnc1 | i | 0.19
COc1ccc(C(=O)OCC(=O)c2ccc(C3CCCCC3)cc2)cc1 | i | 0.61
C=CCn1c(SCC(=O)NCCOC)nnc1-c1cc2c(s1)CCC(CC)C2 (stereo unspecified) | i | -1.1
Cc1onc(-c2ccccc2)c1-c1csc(COc2ccccc2)n1 | i | -0.48
Cc1ccc2c(c1)NC(=O)C(CC(=O)O)O2 (stereo unspecified) | i | -3.7
COc1cc2c(cc1NC(=O)CSc1nc3ccc(C)cc3[nH]1)oc1ccccc12 | i | 1.2
CN(c1ccc(OCC(=O)Nc2nc3ccccc3s2)cc1)S(=O)(=O)c1ccccc1 | i | 0.24
Cc1ccc2nc(SCC(=O)Nc3cccc(Cl)c3)nc(=O)n2c1 | i | -0.39
O=C1C2C3CCCC3=C3CCCC3C2C(=O)N1c1ccccc1 (stereo unspecified) | i | -0.87
COc1ccc(CN2CCNC(=O)C2CC(=O)N(C)Cc2nonc2C)c(F)c1 (stereo unspecified) | i | 1.2
CC1=C(C(=O)NC(C)c2ccc3c(c2)OCCO3)C2(CCC(C)CC2)OC1=O (stereo unspecified) | -10* | -1.3*
CCN(CC)C(C)C(=O)Nc1c2c(cc3c1CCC3)CCC2 (stereo unspecified) | i | 1.7
FC(F)(F)c1cc(CCN2C(=S)NC[C@@H]2c2ccccc2)cc(C(F)(F)F)c1 | i | 0.52
Cn1cc(S(=O)(=O)Nc2ccc3c(c2)OCCO3)cn1 | i | 1.5
COc1ccc(C2C(C#N)=C(N)N(c3cccnc3)C3=C2C(=O)CC(C)(C)C3)cc1OC (stereo unspecified) | i | -1.1
Cn1c(-c2ccc(F)cc2)cnc1NCc1ccccc1F | i | -0.12
Cc1ccc(N(CC(=O)NC2CCCCC2)S(=O)(=O)c2c(C)nn(C)c2C)cc1 | i | 1.4
CN(C)S(=O)(=O)c1ccc(NC(=O)C2CC3C=CC2C3)cc1 (stereo unspecified) | i | 0.72
Cc1cc(C)cc(N(CC(=O)NCc2ccc(F)cc2)C(=O)c2snc(C(N)=O)c2N)c1 | i | -0.42
CC(C)Cc1nnc(NC(=O)CSc2ccccn2)s1 | i | 1.6
Cn1c(=O)c2c(-c3ccccc3)n(-c3ccccc3O)cc2n(C)c1=O | i | -3.2
Cc1cc(C)nc(/N=C(/NC(=O)Nc2ccc(Cl)c(Cl)c2)Nc2ccccc2)n1 | i | -0.01
CCn1cnc2sc(C(=O)N(Cc3ccc(N(C)C)cc3)Cc3ccco3)c(C)c2c1=O | i | -0.12
CCCOc1ccc(-c2nnn(CC(=O)c3c[nH]c4ccccc34)n2)cc1 | i | 1.1
COc1ccc2oc(C)c(C(=O)c3ccc([N+](=O)[O-])cc3)c2c1 | i | 1.1
CC(=O)N=C1SC2CS(=O)(=O)CC2N1c1ccc(-c2nc3ccc(C)cc3s2)cc1 (stereo unspecified) | i | 2.3
CCCn1nnc(NC(=S)NC(=O)c2cccs2)n1 | i | -1.8
O=C(Nc1ccc(OCc2ccccc2)cc1)c1cccc([N+](=O)[O-])c1 | i | -0.32
COc1cccc(/C=N/Nc2cc(Cl)nc(C)n2)c1O | i | -1.2
CCNC(=O)NC(=O)COC(=O)CNC(=O)COc1ccccc1 | i | -1.8
N=C1C(c2ccccc2)=C(O)CN1c1cccc(S(=O)(=O)NCc2ccco2)c1 | i | -0.93
O=C(CCc1ccc(S(=O)(=O)N2CCOCC2)cc1)N1CCc2ccccc2C1 | i | -0.06
CCOc1ccc(C(C)=O)cc1COC(=O)C(C)N=C1NS(=O)(=O)c2ccccc21 (stereo unspecified) | i | -1.1
CC(=O)Oc1ccc(N2C(=O)C3C4C=CC(CO)(O4)C3C2=O)cc1 (stereo unspecified) | i | 0.37
Cc1ccc(SCC(=O)OC(C)C(=O)N2CCc3ccccc32)cc1 (stereo unspecified) | i | -0.68
Cc1ccc(NC(=O)c2c(-c3c(F)cccc3Cl)noc2C)cc1F | i | -0.12
OCC(O)/C=N/Nc1nc(N2CCCCC2)nc(N2CCCCC2)n1 (stereo unspecified) | i | 2.3
Cc1[nH]c2ccccc2c1SCc1nnc(SCc2ccccc2)n1C | i | -3.4
CCN1CCN(CCCNC(=O)c2ccc(CS(=O)c3ccc(Br)cc3)o2)CC1 (stereo unspecified) | i | -0.39
CC(C)CNS(=O)(=O)c1ccc(OCC(=O)Nc2ccc3c(c2)OCO3)c(Cl)c1 | i | 2.2
COc1ccc(/C=C/C(=O)NCc2ccccn2)cc1OC | i | 2.2
O=C(c1ccc(N2CCCCC2)c([N+](=O)[O-])c1)N1CCN(S(=O)(=O)c2ccccc2)CC1 | i | 1.7
Cc1cc(C)cc(NS(=O)(=O)c2cccs2)c1 | i | 0.02
COc1ccc(NC(=O)CC2Sc3ncnn3C2=O)cc1 (stereo unspecified) | i | 2.2
Cc1ccc2oc(=O)n(Cc3ccccc3OC(C)C)c2c1 | i | 0.03
COc1ccc(Cl)cc1NC(=O)COc1ccc(S(=O)(=O)N2CCOCC2)cc1C | i | -0.27
CSc1ccccc1NC(=O)c1ccccc1C | i | -0.22
OCCOc1ccc(CN2CCN(CCCc3ccccc3)C(CCO)C2)cc1 (stereo unspecified) | i | -0.85
CCCCn1c(N)c(N(CC)C(=O)CSc2nnnn2-c2cc(C)ccc2C)c(=O)[nH]c1=O | i | 0.81
Nc1ccc(C(=O)N2CCN(S(=O)(=O)c3ccc(Br)cc3)CC2)cc1[N+](=O)[O-] | i | -0.06
CCN(C(=O)COC(=O)c1cc(=O)[nH]c2ccccc12)C1CCS(=O)(=O)C1 (stereo unspecified) | i | 1.1
O=[N+]([O-])c1ccc(Cl)cc1CNc1ccc(F)c(F)c1 | i | -1.5

Carrying on.
SMILES | KCNQ2 block | KCNQ2 block baseline
CC1=CC(C)(C)N2C(=O)C(=O)c3cc(OC(=O)c4ccco4)cc1c32 | i | -0.03
COc1ccc(Cl)cc1NS(=O)(=O)c1ccc(S(=O)(=O)N2CCCC2)cc1 | i | -0.6
Cc1ccc(C)c(-n2c(C)cc(/C=N/NC(=O)c3c(C)nc4cc(C)ccn34)c2C)c1 | i | 0.05
Cc1onc(-c2ccccc2Cl)c1C(=O)NC1CCS(=O)(=O)C1 (stereo unspecified) | i | -1.2
CCCCCn1c(=S)[nH]c2cc(C(=O)N3CCCC3)ccc2c1=O | i | -0.69
NC(=O)CSC1=Nc2ccccc2C2=NC(CC(=O)NCc3cccs3)C(=O)N12 (stereo unspecified) | i | -0.86
CCOC(=O)C1CCN(Cc2nc3ccc(Cl)cc3n2CCO)CC1 | i | 0.5
COc1cccc(NC(=O)Cn2cc(C=O)c3ccccc32)c1 | i | -0.3
CCOc1cc(CNCC(C)C)cc(Cl)c1OCc1ccccc1 | i | 1.9
CCOC(=O)c1ccc2[nH]c3c(c2c1)CCCC3NC=O (stereo unspecified) | i | -0.2
O=C(c1ccc2c(c1)OCCO2)C1CCN(C(=O)c2ccc(F)c(F)c2)CC1 | i | -0.2
COc1cc(/C=N/NC(=O)C(=O)NCC2CCCO2)cc(Cl)c1O (stereo unspecified) | i | -0.02
C/C(=N/NC(=O)CNC(=O)c1ccncc1)c1ccc(Cl)cc1 | i | 1.1
CC(C)CC1Nc2ncnc(N3CCN(c4ccccc4)CC3)c2N(Cc2ccccc2)C1=O (stereo unspecified) | i | -0.23
COc1ccccc1CNC(=O)CN(C)Cc1ccc(SC)cc1 | i | -0.02
COC(=O)c1ccc(Sc2ccc(C)cc2)c(N)c1 | i | 1.1
CCc1nnc(NC(=O)[C@@H](NC(=O)c2ccc(OC)cc2)C(C)C)s1 | i | -1
COC(=O)c1cc2c(-c3ccccc3)c(C)c3ccccn3c-2c1C(=O)OC | i | 2
CN(C(=O)COC(=O)CNC(=O)c1ccccc1F)C1CCCCC1 | i | 2.7
O=C(CC(c1ccccc1)c1ccccc1)NCC1CCCO1 (stereo unspecified) | i | -0.52
COC(CNC(=O)c1ccc2nc(-c3ccccc3)c(-c3ccccc3)nc2c1)OC | i | 1.2
Cc1cc(NC(=O)CCC(=O)N(Cc2ccco2)C(C(=O)NC2CCCC2)c2ccccc2)no1 (stereo unspecified) | i | -2.3
Cc1ccc(S(=O)(=O)c2c(N)n(/N=C/c3ccco3)c3nc4ccccc4nc23)cc1 | i | 0.65
COc1ccc(CCC(=O)OCC(=O)Nc2ccc(C)c(S(=O)(=O)N(C)C)c2)cc1 | i | 0.42
CNC1(C(N)=O)CCNCC1 | i | -0.86
Clc1cccc(Cl)c1Cn1cnc(=NCc2ccco2)c2[nH]cnc21 | i | -0.65
N#CC1=C(N)SC(N)=C(C#N)C1C1CC=CCC1 (stereo unspecified) | i | -0.01
CCn1ccnc1CN1CCN(CC(C)C)C(CCO)C1 (stereo unspecified) | i | 1.2
Cc1ccc(CN2CCNC(=O)C2CC(=O)N(C)C2CCCCC2)cc1 (stereo unspecified) | i | 0.92
O=C(CN1C(=O)C2CCCCN2C(=O)c2ccccc21)Nc1ccc(F)cc1 (stereo unspecified) | i | -0.32
CCOc1ncccc1C(=O)Nc1ccc(C)cn1 | i | 0.71
CC(=O)Nc1ccc(C(=O)OCC(=O)NC(=O)NC(C)(C)C)cc1 | i | -1
CN(CC(=O)N1CCN(c2ccccn2)CC1)S(=O)(=O)c1ccccc1 | i | -2.3
Cc1cccc(NC(=S)N2CCN(S(C)(=O)=O)CC2)c1 | i | 0.45
COc1cc(NS(=O)(=O)c2c(C)oc3c(F)c(F)c(F)c(F)c23)cc(OC)c1OC | -6.7* | -1*
C=CCn1c(SCC(=O)Nc2cccnc2Cl)nnc1-c1ccc(Cl)cc1 | i | 0.01

Some of these compounds in order of heavy-atom count, lowest first:
SMILES | KCNQ2 block | KCNQ2 block baseline
N#CC1=C(N)SC(N)=C(C#N)C1C1CC=CCC1 (stereo unspecified) | i | -0.01
CCOc1ncccc1C(=O)Nc1ccc(C)cn1 | i | 0.71
CCn1ccnc1CN1CCN(CC(C)C)C(CCO)C1 (stereo unspecified) | i | 1.2
CC(=O)Nc1ccc(C(=O)OCC(=O)NC(=O)NC(C)(C)C)cc1 | i | -1
Clc1cccc(Cl)c1Cn1cnc(=NCc2ccco2)c2[nH]cnc21 | i | -0.65
CN(CC(=O)N1CCN(c2ccccn2)CC1)S(=O)(=O)c1ccccc1 | i | -2.3
O=C(CN1C(=O)C2CCCCN2C(=O)c2ccccc21)Nc1ccc(F)cc1 (stereo unspecified) | i | -0.32

Further results.
SMILES | KCNQ2 block | KCNQ2 block baseline
COc1cccc(OC)c1-c1nnc(-c2cn(C)c3ccccc23)o1 | i | -0.02
CCc1nn(C(C)C(=O)N2CC(C)CC(C)C2)c(=O)c2cc3occc3n12 (stereo unspecified) | -8.1* | 0.39*
CC(NC(=O)CNC(=O)C1CCCCC1)c1ccc(S(N)(=O)=O)cc1 (stereo unspecified) | i | 0.21
OC(CNc1nc(-c2cccnc2)nc2ccccc12)c1ccccc1 (stereo unspecified) | i | -0.87

Whole records as entered above:
CCc1nn(C(C)C(=O)N2CC(C)CC(C)C2)c(=O)c2cc3occc3n12 (stereo unspecified) in the list: KCNQ2 block: -8.1*; KCNQ2 block baseline: 0.39*
CC(NC(=O)CNC(=O)C1CCCCC1)c1ccc(S(N)(=O)=O)cc1 (stereo unspecified) in the list: KCNQ2 block: i; KCNQ2 block baseline: 0.21

Assay outcomes: PubChem, Johns Hopkins Ion Channel Center
